Screens: PubChem, National Center for Advancing Translational Sciences (NCATS)
GCN5L2 inh: GCN5L2 (KAT2A) acetyltransferase inhibition; 390,000 tested, 0.21% active; Potency, µM (highest dose often 58.9 µM), without a hit: at the highest dose activity change, negative = inhibition, actives largely listed as inhibitors; Q92830; GCN5L2 HAT assay, ThioGlo1 CoA-SH fluorescence
Target sequence (Q92830 whole entry, looked up): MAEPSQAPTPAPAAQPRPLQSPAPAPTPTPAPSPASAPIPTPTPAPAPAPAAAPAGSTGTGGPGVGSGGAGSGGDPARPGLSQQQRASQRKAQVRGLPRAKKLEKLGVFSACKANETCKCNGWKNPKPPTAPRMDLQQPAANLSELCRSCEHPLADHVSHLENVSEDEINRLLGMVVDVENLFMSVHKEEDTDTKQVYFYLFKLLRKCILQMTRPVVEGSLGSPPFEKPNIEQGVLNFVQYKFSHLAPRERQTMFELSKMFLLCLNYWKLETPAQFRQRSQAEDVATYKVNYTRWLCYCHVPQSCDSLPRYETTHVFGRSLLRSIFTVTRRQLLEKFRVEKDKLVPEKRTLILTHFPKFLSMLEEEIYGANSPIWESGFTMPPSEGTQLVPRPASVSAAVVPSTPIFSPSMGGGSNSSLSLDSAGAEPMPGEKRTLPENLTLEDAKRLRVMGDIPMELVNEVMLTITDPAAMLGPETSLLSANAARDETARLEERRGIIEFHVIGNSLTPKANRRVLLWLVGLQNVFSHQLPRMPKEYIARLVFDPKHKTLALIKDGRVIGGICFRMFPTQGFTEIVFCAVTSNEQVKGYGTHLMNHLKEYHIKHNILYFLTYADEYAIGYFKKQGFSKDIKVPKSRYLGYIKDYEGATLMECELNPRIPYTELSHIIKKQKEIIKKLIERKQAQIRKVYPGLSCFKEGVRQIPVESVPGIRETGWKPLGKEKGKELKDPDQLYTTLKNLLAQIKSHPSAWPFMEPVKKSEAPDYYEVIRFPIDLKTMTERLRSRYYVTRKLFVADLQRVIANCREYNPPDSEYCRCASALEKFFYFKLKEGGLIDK
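GCN5L2 (20 nM) in 50mM HEPES pH 7.5, 0.1mM EDTA, 0.01% Tween-20 preincubated 15 min with compounds at room temperature. Reaction started with H3(1-25) 75uM, acetyl-CoA 70uM, ThioGlo1 50uM; CoA-thiol fluorescence (Ex340/Em540) read at 0 and 20 min.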
N370S GC: N370S glucocerebrosidase modulation, Gaucher chaperone candidate; N370S GC spleen homogenate, 4MU-glucoside fluorescence; Potency, µM (top dose mostly 59.4 µM), inactives show at the top dose activity change, negative = inhibition, hits mostly inhibitors; 330,000 tested, 0.092% active; AID 2101;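 further: 0% = full enzyme activity and -100% = no enzyme basal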
Active calls of the source: *; ? = inconclusive; · = no result given; & = joins results of further samples. The call rests on the fitted dose curve; in most records, active means well fitted curve in the direction sought with a large enough effect; inconclusive means small, poorly fitted or top-dose-only effect, or another doubt; inactive means no such curve, though single readings can be large; an effect the other way counts as inactive or inconclusive. Unless noted, on the % scale 0 is the no-effect control and ±100 the full control effect; potency means the concentration at half of the fitted maximal effect. These rows are one share of the data, and most or all hits are left out here.

molecule | GCN5L2 inh | N370S GC
O=C(NCCCN1CCOCC1)c1ccccc1NS(=O)(=O)c1ccc(Br)cc1 | -2% | -13%
CC(C(=O)N1c2ccc(F)cc2CCC1C)N1C(=O)c2ccccc2C1=O (stereo not drawn) | -3% | 11%
CCCCNC(=O)CSc1nc2cc3c(cc2c(=O)n1CCCC(=O)NCCc1ccc(OC)c(OC)c1)OCO3 | -3%&2% | -8%
CC(C)C(NC(=O)c1ccccc1)c1nnc(SCC(=O)Nc2nccs2)n1C (stereo not drawn) | -15% | 7%
COc1ccccc1NS(=O)(=O)c1cc(NC(=O)CNC(=O)c2cc(C)cc(C)c2)ccc1C | -10% | -8%
CCCN1C2CCCC1CC(NC(=O)c1cccc([N+](=O)[O-])c1)C2 (stereo not drawn) | -3% | 2%
CNc1ccc([N+](=O)[O-])cc1C(=O)O | 6% | -5%
Oc1c(Br)cc(Br)cc1CNc1cnc2ccccc2c1 | -13% | 28%

(listing goes on)
molecule | GCN5L2 inh | N370S GC
CNC[C@@H]1Oc2c(NC(=O)Nc3ccccc3)cccc2C(=O)N([C@@H](C)CO)C[C@H]1C | -5% | ·
CCOCCCn1c(SCC(=O)NC2CCCC2)nc2ccccc2c1=O | -4% | -1%
O=C(NCC1CCCCC1)c1cccc(Br)c1 | -4% | -1%
COc1cccc(OC)c1C(=O)N=c1sc2cc(S(C)(=O)=O)ccc2n1C | -11% | -4%
Cc1sc(C2C(C#N)=C(N)N(c3cccc(Cl)c3)C3=C2C(=O)CCC3)cc1CN1CCOCC1 (stereo not drawn) | 0% | ·
COc1cc(/C=C(/NC(=O)c2ccccc2)C(=O)Nc2ccccc2)c([N+](=O)[O-])cc1OC | -9% | 23%
O=C(c1cc2cc([N+](=O)[O-])ccc2s1)N1CCCCC1 | 0% | 4%
COc1ccccc1C1CCN(Cc2c(C)[nH]c3ccccc23)CC1 | -1% | -23%

New compounds follow
molecule | GCN5L2 inh | N370S GC
N#Cc1nc(COc2ccccc2)oc1N1CCCC1 | -8% | 14%
CN(Cc1cccnc1)Cc1cn(C)nc1-c1cccc(Cl)c1 | -5% | -14%
CC(=O)C[C@@H](O)CC(=O)[C@H]1OC(=O)[C@H](C)CCCCc2ccccc21 | 0% | ·
CC12CN3CCN(CC(C3)/C1=N\NC(=O)Nc1cccc(Cl)c1)C2 | -9% | 4%
O=C(CCNS(=O)(=O)c1ccc(Br)s1)NCc1ccccc1Cl | -7% | -18%
Cc1ccc(/C=C(\NC(=O)c2ccccc2)C(=O)NC(Cc2ccccc2)C(=O)O)cc1 (stereo not drawn) | -3% | 6%
Cc1ccc(C)c2c(N)c3c(nc12)CCCCC3 (tested in a mixture with another compound) | -5% | -1%
CCC[C@@H]1Cc2ccccc2N1C(C)=O | 2% | ·

New compounds follow.
molecule | GCN5L2 inh | N370S GC
Cc1cccc(N2CCN(C(=O)c3c(Cl)cnn3C)CC2)c1C | -18% | -4%
O=C(CC1SC(=Nc2ccccc2)N(CCO)C1=O)Nc1ccccc1 (stereo not drawn) | -17% | 7%
COc1ccc(NC(=O)CCc2c(C)nn(-c3ccc(N4CCCCC4)nn3)c2C)cc1Cl | 1% | ·
CC(=O)N1c2c(cc(Br)cc2S(=O)(=O)Nc2ccc(OC(F)(F)F)cc2)CC1C (stereo not drawn) | -19% | ·
COc1ccccc1NS(=O)(=O)c1cccc(NC(=S)NCCN2CCOCC2)c1 | 2% | -25%
COC(=O)c1[nH]c2ccc(F)cc2c1NS(=O)(=O)c1ccc(OC)cc1 | -2% | 6%
CC12CC3CC(C)(C1)CC(C(=O)Nc1nn[nH]n1)(C3)C2 | -10% | 10%
CC(NC(=O)COC(=O)c1cn(-c2ccccc2)nc1-c1cccs1)c1ccccc1 (stereo not drawn) | -17% | 7%

(list continues)
molecule | GCN5L2 inh | N370S GC
COCCn1c(C)cc(C(=O)COC(=O)c2n[nH]c3ccccc23)c1C | 1% | 7%
CN(/N=C/c1ccncc1)c1cnn(-c2ccc(F)c(Cl)c2)c(=O)c1Cl | 0% | -2%
COc1ccc(-c2nnc(NC(=O)Cc3ccccc3)o2)cc1 | -5% | 2%
Cc1ccc(OCC(O)CN2CCN(CCO)CC2)c(C)c1 (stereo not drawn) | -3% | 1%
CC(=O)N(C)c1ccc(NC(=O)Nc2ccc(C)cc2)cc1 | -13% | -1%
COCc1cc(Sc2ccc(Cl)cc2)nc(C)n1 | -3% | 24%
O=C(c1ccc2ccccc2n1)N1CCN(c2ccccn2)CC1 | -5% | -7%
CCN(CC)CCNC(=O)CN1C(=O)c2cccnc2Oc2ccc(C)cc21 | -1% | ·

Reformatted: three of the compounds above
The line under a structure holds: GCN5L2 inh, N370S GC
CC(C(=O)N1c2ccc(F)cc2CCC1C)N1C(=O)c2ccccc2C1=O (stereo not drawn)
    -3%, 11%
O=C(CCNS(=O)(=O)c1ccc(Br)s1)NCc1ccccc1Cl
    -7%, -18%
COCCn1c(C)cc(C(=O)COC(=O)c2n[nH]c3ccccc23)c1C
    1%, 7%

(continued)
molecule | GCN5L2 inh | N370S GC
C=CCNC(=O)NC(=O)COC(=O)/C(C#N)=C/c1cc(C)n(CC(C)C)c1C | 1% | 7%
Cc1cc(C)n(-c2ccc(C(=O)Nc3nc4ccccc4s3)cc2)n1 | -8% | -3%
CC(NCc1cccs1)C(=O)Nc1cc(Cl)cc(Cl)c1 (stereo not drawn) | -5% | -7%
COC(=O)c1cc(OC)c(OC)cc1NC(=S)N1CCN(c2ccccc2)CC1 | -6% | 6%
Cc1cc(NC(=O)CSc2nnc(NC(=O)C3CC(=O)N(c4ccccc4)C3)s2)no1 (stereo not drawn) | -1% | -1%
Cc1cccc(C(=O)N2CCN(CCNC(=O)C(=O)Nc3ccc(F)cc3)CC2)c1 | -4% | -7%
N=c1n(CCN2CCCCC2)c2ccccc2n1CC(O)c1ccc(Cl)c(Cl)c1 (stereo not drawn) | -4% | -22%
Cc1cc(C)n(-c2ccc(C(=O)OCC(=O)Nc3ccc(Cl)c(S(=O)(=O)N(C)C)c3)cc2)n1 | -13% | -25%

(next part)
molecule | GCN5L2 inh | N370S GC
CCC(CC)C(=O)Nc1cccc(C(=O)Nc2nnc(C)s2)c1 | -1% | 1%
O=C(Nc1ccc2c(c1)OCO2)C1CC(c2c(F)cccc2Cl)=NO1 (stereo not drawn) | -3% | -2%
COc1ccc(-n2c(SCC(=O)Nc3cc(C)on3)nc3c(c2=O)SCC3)cc1 | 2% | 9%
Cc1ccc2c(Cl)c(C(=O)NCCCn3ccnc3)sc2c1 | 2% | -5%
CC(C)CN1C(=O)C(=O)N(CC(=O)NC(C)CCc2ccccc2)C1=O (stereo not drawn) | -4% | -4%
C=CCN(c1cccc(C(F)(F)F)c1)S(=O)(=O)c1cccc(C(=O)OCC(=O)NC(N)=O)c1 | -6% | 7%
Cc1ccc(NC(=O)CN(C)C(=O)Cc2ccc(Cl)cc2Cl)cc1 | -3% | -13%
C=C(C)CC(c1ccccc1)N(C(C)=O)c1ccco1 (stereo not drawn) | -6% | 1%

New compounds follow
molecule | GCN5L2 inh | N370S GC
C[n+]1c2n(c3ccccc31)N=C(c1ccc(Br)cc1)CS2 | -4% | 4%
COc1ccccc1CNC(=O)C(=O)NCC1OCCN1S(=O)(=O)c1cccs1 (stereo not drawn) | -4% | -13%
Cn1cccc1C(=O)NCC(c1ccco1)N1CCCCC1 (stereo not drawn) | -5% | -7%
COCCCNC(=S)NNC(=O)c1cccnc1 | -10% | 6%
CN(C(=O)COC(=O)COc1ccc2c(c1)CCC2)c1c(N)n(Cc2ccccc2)c(=O)[nH]c1=O | -4% | 3%
COc1cc(/C=N/NC(=O)CNc2n[nH]c(=O)[nH]c2=O)ccc1O | -3% | 19%
O=C(COc1ccc(/C=N/NS(=O)(=O)c2ccccc2)cc1)N1CCOCC1 | -5% | 3%
CCc1ccc(NC(=O)c2cc(C(C)C)on2)cc1 | -6% | -20%

The list goes on:
molecule | GCN5L2 inh | N370S GC
O=C(CN1C(=O)NC(Cc2c[nH]c3ccccc23)C1=O)Nc1cccc(S(=O)(=O)N2CCCCCC2)c1 (stereo not drawn) | -13% | 4%
CN(Cc1ccc(F)cc1)C(=O)c1cccc(OC2CCN(C3CCCC3)CC2)c1 | -3% | 0%
O=C1CCc2nc3ccccc3c(=O)n2N1 | -11% | 18%
C/C(CC(=O)Nc1ccc(Cl)cc1C(F)(F)F)=N\NC(=O)c1ccccn1 | 1% | 6%
COc1ccc(-c2cccc(NS(=O)(=O)c3cc(C)ccc3OC)c2)nn1 | -2% | ·
Cc1cc(C)c(NN=c2c(=O)c3ccccc3c2=O)c(C)c1 | -3% | 21%
CCN(CC)C(=O)Cc1ccccc1 | -21% | 1%
CCc1nnc(NC(=O)CSc2nc3c([nH]c4ccccc43)c(=O)n2-c2ccc(C)cc2)s1 | 2% | ·

(listing goes on)
molecule | GCN5L2 inh | N370S GC
C/C(N)=C(/C#N)C(=O)CSc1nc2scc(-c3ccccc3)c2c(=O)n1C | -4% | 14%
CCOc1ccc(NC(=O)CN(C)C(=O)C2CCN(c3ncnc4sc(C)c(C)c34)CC2)cc1OCC | -24% | -3%
O=C(NCCc1ccccc1)C1CCN(C(=O)N2CCOc3ccccc32)CC1 | -8% | -2%
COc1ccccc1N(CC(=O)NCC1CCCO1)C(=O)CCC(=O)Nc1cc(C)on1 (stereo not drawn) | 0% | -4%
COc1ccc(NC(=O)CN(C)C(=O)c2ccc(NS(=O)(=O)c3ccc(F)cc3)cc2)cc1 | 2% | -12%
Cc1c(C(=O)N2CCCC2)sc(NC(=O)c2ccco2)c1C#N | -16% | 6%
O=C(CN1C(=O)c2ccccc2C1=O)Nc1ccccc1 | 0% | 5%
CS(=O)(=O)c1ccc(C(=O)OCc2nnc(-c3ccccc3)o2)cc1[N+](=O)[O-] | -16% | -9%

(next part)
molecule | GCN5L2 inh | N370S GC
CCOC(=O)c1ccc(S(=O)(=O)N2CC(=O)Nc3ccccc32)cc1 | -5% | -10%
Cc1cc(C)c(O)c(C2(O)C(=O)c3ccccc3C2=O)c1 | -3% | -13%
N=c1c(C(=O)NCc2ccc(F)cc2)cc2c(=O)n3ccccc3nc2n1CC1CCCO1 (stereo not drawn) | ? | 4%
Cc1cccc(NC(=O)NCC2CCN(c3ccc(S(=O)(=O)N4CCOCC4)cc3)CC2)c1 | -6% | -6%
CC(C)(C)CN1CCNC(=O)C1CC(=O)NCCc1ccccc1C(F)(F)F (stereo not drawn) | 3% | -8%
CCOC(=O)C1=C(C)NC(C)=C(C(=O)OCC)C1C1=COCCO1 | -7% | 5%
CCOc1ccc(NC(=O)N2CCC(NC(=O)c3ccco3)CC2)cc1 | -6% | -18%
CC(=O)Nc1ccccc1-c1nc2ccccc2n(C(C)C(=O)Nc2ccccc2C(F)(F)F)c1=O (stereo not drawn) | -2% | ·

Single records, from the list above. Values in the order: GCN5L2 inh, N370S GC
`CN(Cc1cccnc1)Cc1cn(C)nc1-c1cccc(Cl)c1` as listed: -5%, -14%
`C=CCN(c1cccc(C(F)(F)F)c1)S(=O)(=O)c1cccc(C(=O)OCC(=O)NC(N)=O)c1` as listed: -6%, 7%

(next part)
molecule | GCN5L2 inh | N370S GC
OCc1nc2ccccc2n1C/C=C/c1ccccc1 | 5% | 3%
COc1ccc(CN2CCN(C(C)C)C(CCO)C2)cc1Cn1cncn1 (stereo not drawn) | -11% | 3%
N#C/C(=N\Nc1ccc([N+](=O)[O-])cc1)C(=N)N1CCOCC1 | -1% | 0%
N#Cc1ccc(CSc2nnc(Cc3cccs3)n2Cc2ccco2)cc1 | -26% | 9%
COc1ccc(N2C(=O)CC(N3CCN(c4ccc(C(=O)c5cccnc5)cc4)CC3)C2=O)cc1 (stereo not drawn) | -13% | 0%
Cc1ccc(NC(=O)NNC(=O)c2cc3ccccc3cc2O)c(C)c1 | -18% | -1%
COc1ccc2cc(Br)ccc2c1CC(=O)NC1CC(C)(C)NC(C)(C)C1 | 1% | 9%
CCOc1ccccc1CNC(=O)C1CCN(c2nnc(C)c3c(C)n(-c4ccc(C)cc4)nc23)CC1 | -12%&-6% | -2%

Other entries follow.
molecule | GCN5L2 inh | N370S GC
COC(=O)c1ccc(NC(=O)c2ccco2)cc1 | -7% | 7%
N#Cc1ccc(Oc2ccc(S(=O)(=O)N3CCCC3)cn2)cc1 | 2% | -2%
O=C(CSc1ncccn1)N1CCCC1 | 0% | -19%
C/C(=N\NC(=O)c1ccco1)c1cc(Cl)sc1Cl | -6% | -5%
COc1ccc(NC(=O)C2(c3ccc(NC(=O)c4ccc(OC(C)=O)cc4)cc3)CCCC2)cc1 | 0% | 0%
COc1ccccc1CC1CC(=O)N(c2cccc(Cl)c2C)C1=O (stereo not drawn) | -3% | -1%
CCN1CCN(C(=O)CN2C(=O)c3cccc4cccc2c34)CC1 | -5% | 8%
CN1CCN(c2nc3c(c(=O)n(C)c(=O)n3C)n2CC(N)=O)CC1 | 0% | -4%

Following part:
molecule | GCN5L2 inh | N370S GC
Cc1ccc(C)c(OCC(=O)NNC(=O)CSC(=S)N2CCCC2)c1 | 3% | 0%
COc1ccc(CCNc2ccc([N+](=O)[O-])cn2)cc1 | -22% | -6%
CCc1ccc2oc(-c3ccc(N)cc3)nc2c1 | -10% | 2%
COc1ccc(-c2nc(N)c(C#N)c(-c3cccnc3)c2C)cc1 | 0% | 17%
Fc1ccc2nc3n(c2c1F)CCCCCC3 | -1% | -26%
CC(C)CCN1CCN(Cc2nc(-c3ccc(F)cc3)cs2)CC1CCO (stereo not drawn) | 6% | -7%
